Rango complex inh: prevents formation of the Rango-importin beta complex | Q14974 | Rango CFP/YFP FRET sensor + importin beta, 45 min | Potency, µM (top dose mostly 92.2 µM), for inactives: at the top dose inhibition of complex formation | 0.031% of 340,000 active | AID 540263; active = rising FRET ratio curve, often small or poorly fitted; inconclusive = mostly compound fluorescence or quenching in the first reads; inactive = flat curves in all reads;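 also: potency is read from the fitted curve at half-maximal effect; 0% = DMSO wells and 100% = buffer wells lacking importin beta; nearly all actives have a fitted effect of over 15% in size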
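Inhibition scored from the CFP 486 nm/YFP 530 nm FRET ratio 45 min after adding 0.125 microM importin beta to 50 nM Rango biosensor preincubated 5 min with compound (room temperature, PBS with DTT, Tween-20, BSA). No-importin wells as positive control.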
miR-21 reporter: miR-21 reporter, rising signal | AID 2288 | 340,000 tested, under 10 active | Potency, µM (top dose mostly 38.3 µM), without a hit: top-dose reporter change, positive = more light | HeLa miR-21 FLuc reporter, luciferase, 48 h; active = well fitted rising curve with a large enough effect; inconclusive = small, poorly fitted or top-dose-only effect; inactive = no such curve, though single readings can be large or run the other way;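 also: % of control where 0% means no effect; miR-21 action dims this reporter so a rising signal means less miR-21 action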
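Using DMEM plus 10% FBS, HeLa miR-21-FLuc cells are incubated with test compounds (final up to about 40uM) for 48 hours; firefly luciferase signal is then imaged following reagent-mediated lysis.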
GLA inh pH 4.5: blocks human alpha-galactosidase A at pH 4.5 | P06280 | activity change, negative = inhibition, % at 105 µM | 230,000 tested, under 10 active | purified enzyme, 4-MU-alpha-Gal fluorescence, pH 4.5; inconclusive = small, poorly fitted or top-dose-only inhibition, or a rising curve; inactive = flat fitted curve, though single readings scatter; no compound was filed as active;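 also: 0% = full activity with enzyme and -100% = basal without enzyme; dose as in the result columns while the protocol names 77 µM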
Target sequence (P06280 whole entry, looked up): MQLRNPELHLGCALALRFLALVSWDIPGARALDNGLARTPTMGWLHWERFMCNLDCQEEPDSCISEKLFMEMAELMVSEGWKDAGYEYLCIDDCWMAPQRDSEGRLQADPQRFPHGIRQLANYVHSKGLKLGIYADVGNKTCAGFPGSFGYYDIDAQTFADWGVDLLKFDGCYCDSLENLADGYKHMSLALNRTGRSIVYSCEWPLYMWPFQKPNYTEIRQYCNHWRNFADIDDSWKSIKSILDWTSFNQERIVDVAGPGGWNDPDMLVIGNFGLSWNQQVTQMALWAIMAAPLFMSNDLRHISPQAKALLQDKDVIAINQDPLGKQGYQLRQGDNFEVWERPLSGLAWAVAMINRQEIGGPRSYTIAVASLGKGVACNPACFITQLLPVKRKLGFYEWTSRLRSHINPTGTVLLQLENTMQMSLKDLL
Rango release inh: prevents RanGTP from dissociating the Rango-importin beta complex; Biochemical FRET Rango-importin beta, RanGTP-induced dissociation; AID 540253; 0.071% of 340,000 active; Potency, µM (highest dose often 46.1 µM), inactives show at the top dose activity change, negative = inhibition; O95149+P62826; active means falling FRET ratio curve, often poorly fitted, with flat reads before Ran was added; inconclusive means other falling curves, or compound fluorescence or quenching; inactive means flat or rising ratio curve;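 also: potency is read from the fitted curve at half-maximal effect; % of control where 0% means no effect; nearly all actives have a fitted effect of over 45% in size; -100% = wells without RanGTP and RCC1; the record marks most hits as doubtful in a second field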
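Quantitative HTS using a FRET biosensor: 0.1 uM Rango, 0.25 uM importin beta, 0.6 uM Ran, 2 mM GTP, 0.2 uM RCC1 final, PBS with DTT, Tween-20 and BSA. Post-read taken 45 min after Ran addition.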
Numbers without * were called inactive; & = joins results of further samples; [ ] = another dose, or the depositor's remark. These rows are one share of the data; the hit share may differ from the screen's.

O=C(CC1SC2=NCCN2C1=O)Nc1ccccc1 (stereo not given) was read as Rango complex inh 4.2%, miR-21 reporter 0%, GLA inh pH 4.5 2 and Rango release inh -13%.
`CCN1CCN(S(=O)(=O)c2ccc3c(c2)NC(=O)CS3)CC1` gave Rango complex inh -1.0%, miR-21 reporter -1% and Rango release inh -1%.
O=C(N/N=C1\CCCc2ccccc21)c1ccc([N+](=O)[O-])cc1 was read as Rango complex inh 1.0%, miR-21 reporter -32%, GLA inh pH 4.5 5 and Rango release inh -8%.
For CCc1ccc(C(=O)NC2CCCCC2)s1 the results were Rango complex inh 1.0%, miR-21 reporter -49%, GLA inh pH 4.5 1 and Rango release inh 3%.
`COc1ccc(NC(=O)CCNC(=O)C2CCN(S(=O)(=O)c3ccc(F)cc3)CC2)cc1OC` gave Rango complex inh -1.6%, miR-21 reporter -1% and Rango release inh 5%.
Screening O=C(NCCCO)c1cc2c([nH]c3ccccc32)c(-c2ccc(F)cc2)n1 returned Rango complex inh -3.2%, miR-21 reporter 20% and Rango release inh -11%.
For O=C(CSc1nccc(=O)[nH]1)Nc1ccc2ccccc2c1 the results were Rango complex inh -0.3% and Rango release inh -16%.
Cc1cccc(NC(=O)/C(C#N)=C/c2cn(CC(=O)NCc3ccco3)c3ccccc23)c1C was read as Rango complex inh inconclusive, miR-21 reporter -9%, GLA inh pH 4.5 3 and Rango release inh inconclusive.
Cc1cc(-c2ccccc2)c2c(=O)n(-c3ccccc3)[nH]c2n1 was read as Rango complex inh 0.3%, miR-21 reporter 5% and Rango release inh 11%.
`CC(=O)Nc1ccc(S(=O)(=O)N(C)CC(=O)Nc2ccc(F)c(F)c2F)cc1` gave Rango complex inh 2.6% and Rango release inh -1%.
For C/C(CC(=O)Nc1ccccc1Cl)=N\NC(=O)C(=O)NCCO the results were Rango complex inh inconclusive, miR-21 reporter -4%, GLA inh pH 4.5 2[21.1 µM] and Rango release inh -4%.
O=C1NC(c2ccccc2)=CC(c2ccccc2O)N1 (stereo not given) was read as Rango complex inh 10.0% and Rango release inh 10%.
COc1ccc(C(CCNCc2ccc(N(C)C)cc2)c2ccccc2)cc1 (stereo not given) was read as Rango complex inh 1.8%, miR-21 reporter inconclusive and Rango release inh 4%.
CC1CCCCN1C(=O)CSc1nnc2c(n1)[nH]c1ccccc12 (stereo not given) was read as Rango complex inh 0.5%, miR-21 reporter -4% and Rango release inh 0%.
CNC(=O)c1ccc(NC(=O)c2cc(S(=O)(=O)N3CCOCC3)ccc2N2CCCC2)cc1 was read as Rango complex inh 2.7% and Rango release inh 2%.
For C(=C\c1ccccc1)/CSc1nnc(-c2ccccc2)n1Cc1ccco1 the results were Rango complex inh -1.5%, miR-21 reporter 18%, GLA inh pH 4.5 -9 and Rango release inh -2%.
`CC(C)NC(=O)N(O)C1N(Cc2ccc3c(c2)OCO3)C(=S)SC1(C)C` (stereo not given) gave Rango complex inh -1.1%, miR-21 reporter 1%, GLA inh pH 4.5 7 and Rango release inh -4%.
`Cc1ccccc1S(=O)(=O)Cc1ccc(C(=O)N2CC(C)CC(C)C2)o1` (stereo not given) gave Rango complex inh -6.1%, miR-21 reporter 12%, GLA inh pH 4.5 -3 and Rango release inh -2%.
For CS(=O)(=O)N1CCCC(C(=O)NCc2ccco2)C1 (stereo not given) the results were Rango complex inh -4.3%, miR-21 reporter 0%, GLA inh pH 4.5 6 and Rango release inh -9%.
`O=C1c2cccc3cccc(c23)C(=O)N1Cc1ccco1` gave Rango complex inh inconclusive, miR-21 reporter -5%, GLA inh pH 4.5 12 and Rango release inh -19%.
C[C@H]1CC[C@H]2C(=O)N3[C@H](c4ccccc4Br)[C@@H](C)CC[C@H]3C(=O)N2[C@@H]1c1ccccc1Br was read as miR-21 reporter 29% and GLA inh pH 4.5 -7.
Screening CC[C@]1(C(=O)OC)[C@H]2C(=O)N(Cc3ccccc3)C(=O)[C@H]2[C@H]2CN=C(SCC(=O)c3ccccc3)N21 returned Rango complex inh -0.8% and Rango release inh -3%.
Cc1ccc(Cn2nnc3c(=O)[nH]c(C4CCCN(C(=O)c5ccco5)C4)nc32)cc1 (stereo not given) was read as Rango complex inh 0.4%, miR-21 reporter -7% and Rango release inh -6%.
For O=C(CCC(=O)N1CCOc2ccccc21)NC1CCCCCC1 the results were Rango complex inh 1.5%, miR-21 reporter -15% and Rango release inh 6%.
For N#CC(c1nc2ccccc2nc1N1CCOCC1)S(=O)(=O)c1ccccc1 (stereo not given) the results were Rango complex inh inconclusive, miR-21 reporter -1%, GLA inh pH 4.5 -9 and Rango release inh inconclusive.
CN(C)S(=O)(=O)c1ccc(NC(=O)c2cc(F)c(F)cc2Cl)cc1 was read as Rango complex inh -0.7%, miR-21 reporter -4%, GLA inh pH 4.5 3 and Rango release inh 16%.
CCN(CC)S(=O)(=O)c1ccc(-c2nnc(SC)o2)cc1 was read as Rango complex inh 0.1%, miR-21 reporter -8%, GLA inh pH 4.5 4 and Rango release inh 1%.
CCOc1cc(C(=O)OCC(=O)Nc2cccc(C)c2)ccc1OCC(=O)N1CCOCC1 was read as Rango complex inh -2.2%, miR-21 reporter -2%, GLA inh pH 4.5 5 and Rango release inh 8%.
For O=C1CCCCC1C(=O)c1cn(-c2ccc(Cl)c(Cl)c2)nn1 (stereo not given) the results were Rango complex inh -2.2%, miR-21 reporter 0%, GLA inh pH 4.5 6 and Rango release inh 1%.
Screening O=C(NCC1CCCO1)c1cn(-c2ccccc2)nc1-c1ccc(F)cc1 (stereo not given) returned Rango complex inh 0.7%, miR-21 reporter -16% and Rango release inh 11%.
`CC(C)CNC(=O)c1cccc(NC(=O)c2ccc(NC(=O)c3ccco3)cc2)c1` gave Rango complex inh -0.2%, miR-21 reporter -5%, GLA inh pH 4.5 2 and Rango release inh 1%.
For COc1cccc(-n2nnnc2SCC(=O)c2ccc(NC(C)=O)cc2)c1 the results were Rango complex inh -2.8%, miR-21 reporter -6%, GLA inh pH 4.5 0 and Rango release inh 6%.
Cc1cc(C(=O)COC(=O)c2nccnc2N)c(C)n1C was read as Rango complex inh 2.5%, miR-21 reporter -38%, GLA inh pH 4.5 4 and Rango release inh -3%.
Screening Cc1ccc(C)c(S(=O)(=O)N2CCCOC2CNC(=O)C(=O)NCCCN2CCOCC2)c1 (stereo not given) returned Rango complex inh -0.4%, miR-21 reporter 0% and Rango release inh 5%.
For Cc1ccc(NC(=O)CN(C)C(=O)CCSc2ccc(F)cc2)cc1 the results were Rango complex inh 0.1% and Rango release inh 1%.
`CC(=O)Nc1ccc(Cl)c(C(N)=O)c1` gave Rango complex inh 0.5%, miR-21 reporter 2%, GLA inh pH 4.5 0 and Rango release inh -1%.
COc1ccc(CN(C(=O)c2nsc(Cl)c2Cl)C(C(=O)NC2CCCC2)c2ccc(C)cc2)cc1 (stereo not given) was read as Rango complex inh -2.7%, miR-21 reporter 11%, GLA inh pH 4.5 -7 and Rango release inh -8%.
Screening O=C(O)c1cc2[nH]c3c(c2cc1Cl)CCCC3 returned Rango complex inh 0.1%, miR-21 reporter -12% and Rango release inh -12%.
`O=C(CSc1n[nH]c(-c2ccccn2)n1)Nc1ccc(Cl)cc1` gave Rango complex inh 0.9%, miR-21 reporter inconclusive and Rango release inh 1%.
Screening O=C(CN1CCN(C(=O)C2CCCO2)CC1)Nc1cc(C(F)(F)F)ccc1Cl (stereo not given) returned Rango complex inh 1.3%, miR-21 reporter 2% and Rango release inh 5%.
CCOC(=O)c1cc(S(=O)(=O)NC2CCCCC2)cn1C was read as Rango complex inh 0.9%, miR-21 reporter 0% and Rango release inh 2%.
Cc1noc(NS(=O)(=O)c2ccc(NC(=O)c3ccccc3NS(=O)(=O)c3ccc(F)cc3)cc2)c1C was read as Rango complex inh -1.0% and Rango release inh -3%.
Screening C/C(=C\c1ccccc1)C(=O)NCCN1CCOCC1 returned Rango complex inh -1.3%, miR-21 reporter -11%, GLA inh pH 4.5 2 and Rango release inh -6%.
`CC(=O)Nc1ccc(NC(=O)c2c(C)nn(Cc3ccccc3)c2Cl)cc1` gave Rango complex inh -2.4%, miR-21 reporter -4% and Rango release inh 1%.
`Cc1c(CC(=O)O)c(=O)oc2c(C)c(OCc3nn[nH]n3)ccc12` gave Rango complex inh 0.6%, miR-21 reporter -3%, GLA inh pH 4.5 -16 and Rango release inh -2%.
CCN(CC)CC(=O)N1c2ccccc2Sc2ccc(Cl)cc21 was read as Rango complex inh -0.7%, miR-21 reporter -2%, GLA inh pH 4.5 -5 and Rango release inh -14%.
`Cc1noc(C)c1S(=O)(=O)N(CC(=O)N1CCc2ccccc21)c1ccc(C(C)C)cc1` gave Rango complex inh -1.7%, miR-21 reporter -1%, GLA inh pH 4.5 inconclusive and Rango release inh 8%.
COc1ccc(Br)cc1S(=O)(=O)N(CC(=O)N1CCOCC1)c1ccccc1 was read as Rango complex inh -0.1%, miR-21 reporter -4%, GLA inh pH 4.5 -2 and Rango release inh -4%.
Screening CCCCCCSc1ccc([C@@H]2[C@@H]3C(=O)N(C)C(=O)[C@@H]3[C@]3(C(=O)OC)CCCCN23)cc1 returned Rango complex inh 8.7% and Rango release inh -2%.
C/C(CC(O)c1ccc2ccccc2n1)=N/O (stereo not given) was read as Rango complex inh 3.3%, miR-21 reporter -11%, GLA inh pH 4.5 5 and Rango release inh 8%.
`COCC(=O)Nc1sc2c(c1C(=O)OC)CCCC2` gave Rango complex inh -0.1%, miR-21 reporter -11%, GLA inh pH 4.5 -11 and Rango release inh -10%.
CCCCn1c(CNC(=O)CC)nc2ccccc21 was read as Rango complex inh -0.8%, miR-21 reporter 0%, GLA inh pH 4.5 5 and Rango release inh 4%.
Screening CCN1CCN(c2nc(N)c([N+](=O)[O-])c(Nc3ccc(C)cc3)n2)CC1 returned Rango complex inh -0.7%, miR-21 reporter -6%, GLA inh pH 4.5 -11 and Rango release inh 7%.
CN1CCN(C2=Nc3ccccc3Oc3ccc(Cl)cc32)CC1 was read as Rango complex inh 16%, miR-21 reporter 2%&4%, GLA inh pH 4.5 0&-4&-2&-1&11 and Rango release inh -8%.
`C=CCNC(=O)CSc1nnc(-c2ccccc2Br)n1-c1cccc(C(F)(F)F)c1` gave Rango complex inh 4.3%, miR-21 reporter 15%, GLA inh pH 4.5 5 and Rango release inh -8%.
CC(NC(=O)COC(=O)c1ccc(OCC2CCCO2)cc1)c1ccccc1Cl (stereo not given) was read as Rango complex inh -0.7% and Rango release inh -6%.
Screening N#Cc1ccc(OCC(O)CN2CCN(C(c3ccccc3)c3ccccc3)CC2)cc1 (stereo not given) returned Rango complex inh 1.6%, miR-21 reporter -6% and Rango release inh 17%.
N#CCc1ccc(NC(=O)Nc2cccc(Cl)c2)cc1 was read as Rango complex inh -1.0%, miR-21 reporter -1%, GLA inh pH 4.5 2 and Rango release inh -20%.
For c1ccc(-c2ccc(-c3ccccc3)[nH]2)cc1 the results were Rango complex inh 1.8% and Rango release inh -5%.
